# High-throughput results: PubChem, Broad Institute
# NOMO-1 viab – STK33 inhibitor candidate reducing NOMO-1 cell viability; 37,000 compounds, 7.5% hits; inhibition, % (no concentration beside the values); AID 2330; NOMO-1 AML viability, CellTiter-Glo luminescence, 72 h;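 active = most replicates above 80%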;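 note: wells of about 30 µL received 25 nL stock; 0% = median of vehicle wells and 100% = reference inhibitor level; the first replicate is given; inactives centre near 10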
# The depositor's hits bear a star. These rows are one share of the data. The share of hits here may be higher or lower than overall.
SMILES | NOMO-1 viab
COC(=O)c1cc(OC)c(OC)cc1NC(=O)CN1CCOCC1 | 0
COc1cc(C2Oc3c(OC)cc(CCCO)cc3C2CO)ccc1O[C@H]1O[C@H](C)[C@@H](O)[C@H](O)[C@@H]1O (some centres not stated) | 6
Cc1noc(C)c1NC(=O)Nc1ccc2c(c1)CC(=O)N([C@H](C)CO)C[C@@H](C)[C@H](CN(C)C(=O)Nc1ccc(F)cc1)O2 | 5
C[C@@H]1CN([C@H](C)CO)C(=O)Cc2cc(NC(=O)CCCCCC(=O)Nc3ccccc3N)ccc2O[C@@H]1CN(C)S(=O)(=O)c1ccccc1 | 23
CCOC(=O)c1sc(NC(=O)CSc2nc3c(cc2C#N)CCC3)c(C#N)c1C | -3
CC(C)(C)C1CCc2c(sc(NC(=O)CSc3n[nH]c(-c4ccco4)n3)c2C#N)C1 (configuration not stated) | 15
Oc1ccc(/C=N/c2nccs2)cc1 | -4
Cc1cc(Cl)c(S(=O)(=O)Nc2cccc(C(F)(F)F)c2)cc1OCC(N)=O | -11
C[C@@H]1O[C@@H](OC[C@H]2O[C@@H](Oc3ccc(O)cc3)[C@H](O)[C@@H](OC(=O)c3ccc(O)cc3)[C@@H]2O)[C@H](O)[C@H](O)[C@H]1O | -5
COc1cc(C=O)cc2c1[nH]c1ccccc12 | 12
C[C@H](CO)N1C[C@H](C)[C@@H](CN(C)Cc2ccccc2)Oc2ccc(NS(C)(=O)=O)cc2C1=O | -9
C[C@H]1CN([C@@H](C)CO)C(=O)c2cccc(NC(=O)Nc3ccc(F)cc3)c2O[C@@H]1CN(C)C(=O)Nc1cccc2ccccc12 | 12
Clc1ccc(Cn2ncc3c(NCCN4CCOCC4)ncnc32)cc1 | -11
O=[N+]([O-])c1ccccc1OCC(O)CNC1CCCC1 (configuration not stated) | 8
Cc1ccc(C(=O)C2C(=O)C(=O)N(Cc3cccnc3)C2c2cccc(Oc3ccccc3)c2)o1 (configuration not stated) | -7
COc1cc2c(cc1O)C1(Cc3ccc4c(c3C1=O)OCO4)N(C)CC2 (configuration not stated) | 5
C[C@@H]1CN([C@H](C)CO)C(=O)Cc2cc(N(C)C)ccc2O[C@H]1CN(C)S(=O)(=O)c1ccccc1 | -7
C[C@@H]1CN([C@H](C)CO)C(=O)c2cc(NC(=O)CCC(F)(F)F)ccc2O[C@H]1CN(C)Cc1ccc(C(=O)O)cc1 | 3
CCOC(=O)c1ccc(NC(=O)CSc2nc3sc4c(c3c(=O)[nH]2)CCC4)cc1 | 23
CC(C)NC(=O)N(C)C[C@H]1Oc2ccc(NC(=O)c3ccncc3)cc2C(=O)N([C@H](C)CO)C[C@H]1C | 4
C[C@@H]1CN([C@@H](C)CO)C(=O)Cc2cc(NC(=O)C3CC3)ccc2O[C@@H]1CN(C)S(=O)(=O)c1cn(C)cn1 | -3
Nc1ccc(-c2nc3ccccc3[nH]2)cc1 | 58
CCn1c(SCc2nc(-c3cccs3)no2)nnc1-c1c[nH]c2ccccc12 | 20
O=C(CSc1nc(-c2ccccc2)cc(=O)[nH]1)Nc1cc(C(F)(F)F)ccc1Cl | 21
COC(=O)c1cc(OC)c(OC)cc1NC(=O)C1c2ccccc2Oc2ccccc21 | 5
C[C@H](CO)N1C[C@H](C)[C@H](CN(C)Cc2ccc(C(=O)O)cc2)Oc2c(cccc2N(C)C)C1=O | 19
CCn1c2ccccc2c2cc(NC(=O)COc3ccc([N+](=O)[O-])cc3)ccc21 | -27
Cc1ccc(-n2cnnn2)c(S(=O)(=O)N2CCOCC2)c1 | -17
C[C@H](CO)N1C[C@H](C)[C@H](CN(C)C(=O)Nc2ccc(C(F)(F)F)cc2)Oc2ccc(NC(=O)Cc3cn(C)c4ccccc34)cc2CC1=O | 35
Cc1nnc(SCC(=O)Nc2ccc(Br)cc2Cl)s1 | -10
Cc1ccc(C(C)C)cc1OCC(O)Cn1c(C)nc2ccccc21 (configuration not stated) | 105*
COC(=O)c1sc2c(C)cc(Cl)c(C)c2c1C(=O)Oc1ccccc1 | 26
O=C(NCc1ccco1)c1ccc(NC(=O)c2ccco2)cc1 | -21
CC(C)NC(=O)Nc1cccc2c1O[C@H](CN(C)S(=O)(=O)c1ccc(F)cc1)[C@H](C)CN([C@@H](C)CO)C2=O | 3
COc1cc(/C=C2\Oc3cc(O)cc(O)c3C2=O)cc(OC)c1O | 26
CCOC(=O)C1C(=O)C(=O)Nc2ccccc21 (configuration not stated) | 21
C[C@@H]1CN([C@H](C)CO)C(=O)c2cccc(NC(=O)CCCCCC(=O)Nc3ccccc3N)c2O[C@@H]1CN(C)S(=O)(=O)c1ccccc1 | 47
Cc1cc(C(=O)Nc2cccc3c2O[C@@H](CN(C)C(=O)Nc2ccc(C(F)(F)F)cc2)[C@@H](C)CN([C@H](C)CO)C3=O)n(C)n1 | 24
C[C@H](CO)N1C[C@H](C)[C@H](CN(C)Cc2ccc(C(=O)O)cc2)Oc2ccc(NC(=O)C3CCCCC3)cc2CC1=O | 5
C[C@H](CO)N1C[C@H](C)[C@H](CN(C)S(=O)(=O)c2ccc(F)cc2)Oc2ccc(NC(=O)Cn3cnnn3)cc2C1=O | -2
C[C@@H]1CN([C@H](C)CO)C(=O)c2cccc(NS(=O)(=O)c3ccc(Cl)cc3)c2O[C@@H]1CN(C)Cc1ccc(Oc2ccccc2)cc1 | 50
C[C@@H]1CN([C@H](C)CO)C(=O)c2cccc(NS(=O)(=O)c3cccs3)c2O[C@H]1CN(C)Cc1ccc(-c2ccccc2)cc1 | 4
CNC[C@@H]1Oc2c(NS(C)(=O)=O)cccc2C(=O)N([C@H](C)CO)C[C@H]1C | 12
CCn1c(SCC(=O)c2ccc(C)cc2)nnc1-c1ccncc1 | -12
O=C(CSc1ncn[nH]1)Nc1nsc(-c2ccc(Cl)cc2)n1 | -17
O=C(CSc1nc2ccccc2c(=O)n1-c1cccc(Cl)c1)Nc1cccc(Cl)c1 | 38
O=S(=O)(Nc1ncccn1)c1ccc(NC(=S)N2CCN(c3ncccn3)CC2)cc1 | 3
CC(C)NC(=O)N(C)C[C@@H]1Oc2ccc(NC(=O)CCCCCC(=O)Nc3ccccc3N)cc2C(=O)N([C@H](C)CO)C[C@H]1C | -19
O=C(CCCN1C(=O)c2cccc3cccc(c23)C1=O)Nc1ccccc1C(F)(F)F | -2
COc1ccc(-c2nnc3c4ccccc4c(C)nn23)cc1S(=O)(=O)NCC1CCCO1 (configuration not stated) | 37
CCCCN1C(C)=NC(C(F)(F)F)(C(F)(F)F)C2=C1CC(C)(C)CC2=O | 1
COc1ccc(NC(=O)N(C)C[C@H]2OCCCC[C@@H](C)Oc3ccc(NC(=O)c4ccccc4)cc3C(=O)N([C@H](C)CO)C[C@@H]2C)cc1 | 25
C[C@@H]1CN([C@H](C)CO)C(=O)Cc2cc(NC(=O)CCN3CCOCC3)ccc2O[C@H]1CN(C)Cc1ccncc1 | 7
COc1ccc(C(=O)C(C)Oc2ccc(NC(=O)c3cccc(OC)c3)cc2)cc1 (configuration not stated) | 125*
O=C(Nc1ccc(Cc2ccc(O)c(NC(=O)c3ccccc3F)c2)cc1O)c1ccccc1F | 27
CN1C(=O)c2ccccc2-n2c(nc3ccccc3c2=O)[C@@]12O[C@H]2c1ccccc1 | 104*
Cc1ccc(N(C(C)C(=O)Nc2ccccc2C(=O)N2CCOCC2)S(C)(=O)=O)cc1C (configuration not stated) | 31
C[C@@H]1CN([C@@H](C)CO)C(=O)Cc2cc(NC(=O)Nc3ccc(C(F)(F)F)cc3)ccc2O[C@@H]1CN(C)S(C)(=O)=O | 114*
CCCCCc1ccc(/C=C/C(=O)Nc2ccccc2C(=O)O)cc1 | -2
Cc1ccc(S(=O)(=O)Nc2cccc3c2O[C@H](CN(C)S(=O)(=O)c2ccccc2)[C@@H](C)CN([C@@H](C)CO)C3=O)cc1 | -5

# Grouped by structure, the entries above with a nitro group on carbon.
SMILES | NOMO-1 viab
O=[N+]([O-])c1ccccc1OCC(O)CNC1CCCC1 (configuration not stated) | 8
CCn1c2ccccc2c2cc(NC(=O)COc3ccc([N+](=O)[O-])cc3)ccc21 | -27

# Next section.
SMILES | NOMO-1 viab
Cc1noc(C)c1S(=O)(=O)Nc1cccc2c1O[C@H](CN(C)S(C)(=O)=O)[C@H](C)CN([C@H](C)CO)C2=O | -16
O=C(NCCO)c1cc2ccccc2oc1=O | 18
CCOc1ccc(-n2c(SCC(=O)Nc3ccc(Cl)cc3)nc3ccccc3c2=O)cc1 | 54
C[C@@H]1CCCCO[C@H](CN(C)C(=O)Nc2ccc(C(F)(F)F)cc2)[C@@H](C)CN([C@H](C)CO)C(=O)c2cc(NS(=O)(=O)c3cn(C)cn3)ccc2O1 | 36
C[C@H](CO)N1C[C@H](C)[C@H](CN(C)Cc2ccc3c(c2)OCO3)Oc2ccc(NS(=O)(=O)c3ccc(F)cc3)cc2C1=O | 112*
O=C(CSc1nnc(-c2cccs2)n1-c1cccc(C(F)(F)F)c1)c1ccc(F)cc1 | 28
O=C(c1ccccc1)c1cnc2ccccn2c1=O | 0
C[C@H](CO)N1C[C@H](C)[C@@H](CN(C)C(=O)Nc2ccc(C(F)(F)F)cc2)Oc2ccc(NS(=O)(=O)c3cn(C)cn3)cc2C1=O | -11
C[C@@H]1CN([C@@H](C)CO)C(=O)c2cc(NS(=O)(=O)c3cccs3)ccc2O[C@H]1CN(C)S(=O)(=O)c1ccc(F)cc1 | 13
COc1ccc(NC(=O)CSC2CC(=O)N(c3ccc(F)cc3)C2=O)cc1 (configuration not stated) | -4
O=C(Nc1ccccc1)Nc1cc(C2CC2)nn1-c1ccccc1 | 16
C[C@H]1CN([C@@H](C)CO)C(=O)Cc2cc(NC(=O)C3CCCCC3)ccc2O[C@@H]1CN(C)S(=O)(=O)c1ccc(F)cc1 | 16

# Of the compounds above, these have a COOH group:
SMILES | NOMO-1 viab
C[C@@H]1CN([C@H](C)CO)C(=O)c2cc(NC(=O)CCC(F)(F)F)ccc2O[C@H]1CN(C)Cc1ccc(C(=O)O)cc1 | 3
C[C@H](CO)N1C[C@H](C)[C@H](CN(C)Cc2ccc(C(=O)O)cc2)Oc2c(cccc2N(C)C)C1=O | 19
C[C@H](CO)N1C[C@H](C)[C@H](CN(C)Cc2ccc(C(=O)O)cc2)Oc2ccc(NC(=O)C3CCCCC3)cc2CC1=O | 5
CCCCCc1ccc(/C=C/C(=O)Nc2ccccc2C(=O)O)cc1 | -2

# Back to the main list, starting 2 compounds before the break.
SMILES | NOMO-1 viab
O=C(Nc1ccccc1)Nc1cc(C2CC2)nn1-c1ccccc1 | 16
C[C@H]1CN([C@@H](C)CO)C(=O)Cc2cc(NC(=O)C3CCCCC3)ccc2O[C@@H]1CN(C)S(=O)(=O)c1ccc(F)cc1 | 16
C[C@@H]1CN([C@H](C)CO)C(=O)c2cc(NC(=O)Nc3ccccc3)ccc2O[C@@H]1CN(C)Cc1ccc(C(=O)Nc2ccccc2N)cc1 | 109*
COc1ccc(S(=O)(=O)N(C)C[C@H]2Oc3c(NC(=O)C4CCCCC4)cccc3C(=O)N([C@H](C)CO)C[C@@H]2C)cc1 | 19
C[C@@H]1CN([C@@H](C)CO)C(=O)c2cccc(NS(=O)(=O)c3ccccc3)c2O[C@@H]1CN(C)Cc1ccncc1 | -19
Cn1c(SCC(=O)Nc2ccccc2F)nnc1-c1cc2ccccc2o1 | 17
COc1ccc(CN(C)C[C@@H]2Oc3ccc(NC(=O)NC(C)C)cc3CC(=O)N([C@H](C)CO)C[C@H]2C)cc1 | 2
C[C@@H]1CN([C@H](C)CO)C(=O)c2cc(NC(=O)Cc3cn(C)c4ccccc34)ccc2O[C@@H]1CN(C)Cc1ccc(-c2ccccc2)cc1 | 112*
COc1ccc(S(=O)(=O)N(C)C[C@H]2Oc3c(NC(=O)c4ccncc4)cccc3C(=O)N([C@@H](C)CO)C[C@@H]2C)cc1 | 7
C[C@H](CO)N1C[C@H](C)[C@H](CN(C)S(=O)(=O)c2ccccc2)Oc2ccc(N(C)C)cc2CC1=O | 12
COC(=O)CNC(=O)c1cc(OC)c(OC)c(OC)c1 | 10
N#C/C(=C\c1ccc(O)c(O)c1)C(=O)NCCCc1ccccc1 | 92*
Cc1scc(C(=O)NCCc2ccc(S(N)(=O)=O)cc2)c1-c1ccccc1 | 17
C[C@@H]1CN([C@H](C)CO)C(=O)c2cc(NC(=O)C3CC3)ccc2O[C@@H]1CN(C)S(=O)(=O)c1ccc(Cl)cc1 | -13
Cc1ccc(S(=O)(=O)Nc2ccc3c(c2)CC(=O)N([C@@H](C)CO)C[C@H](C)[C@H](CN(C)C(=O)Nc2c(C)noc2C)O3)cc1 | 27
Cc1noc(C)c1NC(=O)Nc1ccc2c(c1)C(=O)N([C@H](C)CO)C[C@H](C)[C@H](CN(C)C(=O)Nc1ccc(C(F)(F)F)cc1)O2 | 0
Cc1cc(C(=O)Nc2cccc3c2O[C@H](CN(C)S(=O)(=O)c2cn(C)cn2)[C@H](C)CN([C@@H](C)CO)C3=O)n(C)n1 | 9
C[C@H]1CN([C@@H](C)CO)C(=O)c2cc(NC(=O)Nc3ccc(F)cc3)ccc2O[C@@H]1CN(C)Cc1ccc(-c2ccccc2)cc1 | 30
COc1cc([C@H]2OC[C@H]3[C@@H]2CO[C@@H]3c2cc(OC)c(O[C@@H]3O[C@H](CO)[C@@H](O)[C@H](O)[C@H]3O)c(OC)c2)cc(OC)c1O | -3
C[C@H](CO)N1C[C@H](C)[C@H](CN(C)CC2CC2)Oc2ccc(NS(C)(=O)=O)cc2C1=O | -20
CCN(CC(=O)Nc1ccccc1SC)S(=O)(=O)c1ccc2ccccc2c1 | 9
CC(C)Sc1nc(-c2cccs2)cc(C(F)(F)F)c1C#N | -5
